Assay outcomes from PubChem.
eIF4H FP inh: human eIF4H binding inhibitors, primary screen, translation initiation inhibitor project, biochemical, uHTS, fluorescence polarization; actives 0.94% (n = 290,000); eIF4H fluorescence polarization binding assay; inhibition, % at 35 µM;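 active means 50% or more with normal probe brightness, or confirmed in later tests; inconclusive means above 50% with abnormal brightness, or retests that disagree; inactive means below 50% or failed in later tests; about a fifth of its hits are not listed in these tables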;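 further: calls also rest on retests at 20 µM and on dose response follow-up; 0% = protein and probe with vehicle and 100% = probe without protein; strong numbers were not always called active; many hits fall short of the cut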
HIV Env fusion: inhibitors of HIV-1 Env-driven cell-cell fusion, primary screen, HeLa-JRFL effector, CEM21 target cells, luciferase; inhibition, % at 12.3 µM; actives 1.1% (n = 360,000); AID 651610, 2012;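 active means mean replicate inhibition score of at least 50 and every replicate individually at or above 50; inconclusive means only one of the two criteria met; inactive means mean below 50 and not all replicates reaching 50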;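 further: 0% = plate neutral controls and 100% = maraviroc near 300 nM; one replicate is shown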
Rce1 inhib: yeast Rce1p protease inhibitors, primary screen, biochemical, fluorescence, cell-free homogeneous. calls only. AID 2563, 2010. actives 0.27% (n = 290,000). yeast membranes, quenched prenylated peptide cleavage fluorescence. CAAX prenyl protease 2 (Saccharomyces cerevisiae (strain ATCC 204508 / S288c)), Q03530;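 active means fall in fluorescence gain of 50% or more versus controls, with final raw signal at or below 3038400; inconclusive means same 50% fall but final raw signal above 3038400; inactive means fall in fluorescence gain under 50%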;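 further: plate controls were neutral control wells for no effect and wells lacking membranes for full effect; tested at 10 µM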
Target sequence (Q03530 whole entry, looked up): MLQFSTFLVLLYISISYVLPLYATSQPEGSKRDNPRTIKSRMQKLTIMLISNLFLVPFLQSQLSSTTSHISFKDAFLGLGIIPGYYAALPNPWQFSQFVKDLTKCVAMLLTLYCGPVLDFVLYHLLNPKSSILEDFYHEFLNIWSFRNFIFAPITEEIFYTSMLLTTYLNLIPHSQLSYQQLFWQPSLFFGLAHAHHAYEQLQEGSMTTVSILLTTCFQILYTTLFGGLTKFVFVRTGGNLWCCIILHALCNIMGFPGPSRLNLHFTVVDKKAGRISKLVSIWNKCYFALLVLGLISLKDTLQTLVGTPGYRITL
CSC inhib: cancer stem cell viability inhibitors, primary screen, luminescence | inhibition, % at 7.5 µM | actives 1.1% (n = 300,000) | cancer stem cell-like cells viability;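 active means mean at 75% or more and at least half the replicates too; inconclusive means mean and replicates disagree; tested in HMLE shEcad cells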;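 further: 0% = median of negative and 100% = median of positive control wells; the first replicate is given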
UUG fidelity: modulators of yeast start codon fidelity, primary screen, whole organism, S. cerevisiae, single point, plate reader | S. cerevisiae UUG-firefly luciferase reporter, luminescence/redox ratio | activity score, % at 18.7 µM | actives 0.13% (n = 350,000) | AID 602363, 2012;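 active means replicate mean at a twofold rise or more, about +100% in these data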;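 further: firefly luciferase made from a UUG start codon reports start codon fidelity; reporter light over untreated wells divided by growth signal over untreated wells; some hits fall short of that in this replicate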
PABP FP inh: PABP poly(A) RNA binding inhibitors, primary screen, biochemical, fluorescence polarization, uHTS | actives 1% (n = 290,000) | inhibition, % at 35 µM | Polyadenylate-binding protein 1 (Homo sapiens), P11940;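 active means 50% or more with normal probe brightness, or confirmed in later tests; inconclusive means above 50% with abnormal brightness, or retests that disagree; inactive means below 50% or failed in later tests; about a fifth of its hits are not listed in these tables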;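 further: calls also rest on retests at 20 µM and on dose response follow-up; controls were probe without protein and protein plus probe with vehicle; some compounds called inactive have numbers as strong as hits; many hits fall short of the cut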
MT1-MMP act inh: blockers of MT1-MMP proenzyme processing, primary screen, HT1080 RFP-PRO-GFP cells, GFP/RFP fluorescence; GFP/RFP ratio change, % at 20 µM; AID 651647, 2012; GFP/RFP ratio fluorescence, overnight; percent of plate control window, DMSO zero; Matrix metalloproteinase-14 (Homo sapiens), P50281; actives 0.061% (n = 360,000);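 active means GFP/RFP ratio change of at least 30% with cell ATP level not reduced by more than half and red fluorescence within 50% of control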; further: strong numbers were not always called active
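Assay system: RFP-PRO-GFP reporter HT1080 cells; read-out basis: GFP/RFP fluorescence ratio; benchmarks: DMSO wells and RFP-L50D-GFP cells; doses: 20 µM single dose, 1% DMSO; schedule: overnight cell settling, then overnight compound exposure, 37 °C, 5% CO2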
MT1-MMP act inh RFP: recorded beside MT1-MMP act inh, whose call it bears; RFP signal change, %; measured here: RFP expression control read;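 0 = vehicle wells; hits needed this value within 50% of zero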
* hit, by the source's call; i = inactive; ? = inconclusive; / = not tested or not shown; & = joins results of further samples. Hits appear at their usual frequency; any-hit rate near 2.9%.

Molecule	eIF4H FP inh	HIV Env fusion	Rce1 inhib	CSC inhib	UUG fidelity	PABP FP inh	MT1-MMP act inh	MT1-MMP act inh RFP
CCOC(=O)c1sc(=NC(=O)c2ccc(OC(C)C)cc2)n(C)c1C	-2	-20	i	/	-12	-5	8	5
COc1ccc(N(CC(=O)Nc2cc(OC)ccc2OC)S(=O)(=O)c2c(C)noc2C)cc1	-10	8	i	0	-21	8	-5	-7
COc1ccc(CN2CCN(c3ccccn3)CC2)c(OC)c1C	-5	-2&-49	i	5&-2	2&-16	16	0&0	0&2
O=C(CN1C(=O)C2(OCCO2)c2ccccc21)c1ccc(Br)cc1	-1	/	i	4	15	-10	6	2
CCSc1nnc(NS(=O)(=O)c2ccc(OC)cc2)s1	4	0	i	6	/	0	-1	0
CCOC(=O)C1=C(C)Nc2ccccc2N=C1NC(=O)Cc1ccc(Cl)c(Cl)c1	6	14	i	24	/	-19	-4	0
Cc1ccc(S(=O)(=O)N2CCCCC2)cc1NC(=O)CSc1nccn1C	2	-5	i	-9	/	15	0	5
NC(=O)C[n+]1cccc(C(N)=O)c1	1	-4	i	/	/	-5	5	5
COc1ccc(NC2CC(=O)N(c3cccc(C)c3)C2=O)cc1 (stereo not given)	-8	-116	i	-4	-10	6	0	4
Cc1ccc(-c2ccc(SCC(=O)Nc3cc(C)on3)nn2)cc1	-2	-13	i	-7	/	-4	3	3
O=C(O)c1ccccc1NC(=O)C(c1ccccc1)c1ccccc1	/	7	/	6	-3	/	0	8
CCCOC(=O)CC1C(=O)NCCN1C(=O)OC(C)(C)C (stereo not given)	-4	14	i	-3	-11	3	0	3
CCC(C)NC(=O)CN1C(=O)COc2ccc(S(=O)(=O)N3CCOCC3)cc21 (stereo not given)	-12	16	i	/	-17	0	0	4
CC1Cc2nc(SCC(=O)N3CCOCC3)n(-c3ccccc3)c(=O)c2S1 (stereo not given)	11	14	i	-10	-8	-4	1	2
NS(=O)(=O)c1ccc(NC(=O)CSC2=NC(=O)C(c3ccccc3)C(=O)N2)cc1 (stereo not given)	-5	-3	i	-1	1	7	4	0

(more compounds)
Molecule	eIF4H FP inh	HIV Env fusion	Rce1 inhib	CSC inhib	UUG fidelity	PABP FP inh	MT1-MMP act inh	MT1-MMP act inh RFP
COc1ccc(CCOC(=O)CNC(=O)c2ccc(Cl)cc2Cl)cc1	-8	/	i	-11	-20	-5	6	3
CCc1ccccc1NC(=O)CNC(=O)c1cc(C2CC2)nn1-c1ccccc1	/	5	/	/	7	/	0	2
Cc1ccc(N/C(N)=N/c2nc(CSc3nnc(C)s3)cc(=O)[nH]2)c(C)c1	0	-146	/	5	/	2	9	-9
CC(=O)Oc1c(C(=O)c2nnc(C)o2)c(=O)n(C)c2ccccc12	3	5	i	-6	/	2	-5	6
CCOC(=O)Cn1nnnc1CN(Cc1ccc(OC)cc1)Cc1cc2cc(CC)ccc2[nH]c1=O	-4	/	/	-8	-11	0	-5	-4
CCn1c(CCNC(=O)c2ccc(C)cc2)nnc1SCc1ccc(Cl)c(Cl)c1	8	34	i	/	-1	8	-5	-7
CC(C)(C)C(=O)NNC(=O)COc1ccc2ccccc2c1Br	-1	5	i	-12	/	-10	-1	1
O=C1CNC(=O)N1CC(O)Cn1c2ccccc2c2ccccc21 (stereo not given)	-9	-14	i	/	/	-12	4	0
CCC(C)(C)n1c(=O)[nH]c2c(c1=O)CCC2	10	-16	i	-4	-5	4	3	2
COc1ccc([C@H]2CC(=O)C=C(c3ccc(C)c(F)c3)C2)cc1	/	/	/	6	-14	/	7	-3
CCCCCOC(=O)Cn1c(=O)oc2ccccc21	3	-16	i	0	-13	14	-1	1
CCn1c(=O)c(C(=O)NNS(=O)(=O)c2ccc(Br)cc2)c(O)c2ccccc21	2	21	i	43	/	-8	2	5
O=C1C(=O)N(CCN2CCOCC2)C(c2ccccn2)/C1=C(/O)c1ccccc1 (stereo not given)	9	-37	i	3	-3	8	-1	3
CCc1ccc(NC(=O)NNC(=O)c2cc3ccccc3cc2O)cc1	31	-5	i	1	-11	-1	-6	4
CN(CC(=O)Nc1ccccc1C(F)(F)F)C(=O)COc1ncnc2sccc12	-7	22	i	-15	/	1	2	4

(next part)
Molecule	eIF4H FP inh	HIV Env fusion	Rce1 inhib	CSC inhib	UUG fidelity	PABP FP inh	MT1-MMP act inh	MT1-MMP act inh RFP
CC(Sc1ccccn1)C(=O)Nc1ccc(S(N)(=O)=O)cc1 (stereo not given)	-9	-16	i	5	0	-14	3	2
CC(C)N(C(=O)C[n+]1ccc(/C=N/O)cc1)C(C)C	5	-8	i	/	/	12	-1	0
COc1ccc(C(=O)c2ccc(Cl)cc2)c2ccccc12	1	/	i	60	-17	7	1	7
O=C(Cn1cnc2c(NCc3ccccc3)ncnc21)NCc1ccc2c(c1)OCO2	/	-72	/	/	-8	/	1	-1
COc1ccc(/C=C/C(=O)N(CCC(N)=O)c2ccccc2)cc1S(=O)(=O)N1CCOCC1	/	-10	/	/	-12	/	12	3
CC(C)(C)c1ccc(C(=O)N/C(N)=N/c2nc3ccccc3o2)cc1	-10	/	i	8	-9	-12	-3	-27
CC(C)N(CC#CC(O)(c1ccccc1)c1ccccc1)CCO	-7	-13	i	-12	-13	-6	0	3
CSc1ccccc1NC(=O)c1cc(C(C)C)on1	-10	-41	i	3	-20	4	2	3
Cc1nnc(N/N=C/c2ccccc2C(F)(F)F)n1N	6	7	i	-5	-12	-7	2	6
CCn1c(=O)c(CCC(=O)NCCN2CCOCC2)c(C)c2c(C)nn(-c3ccccc3)c21	-2	21	i	-8	-15	6	0	-3
CCOC(=O)C(C)Sc1nc(-c2ccccn2)ncc1OC (stereo not given)	2	1	i	-2	/	-8	9	7
CCCCOc1ccc(C(=O)NNC(=S)NC(=O)CC)cc1	14	/	i	47	/	-2	0	2
Cc1noc(C)c1COc1cccc(C(=O)OCC(=O)NC(=O)c2ccc(OC(F)F)cc2)c1	19	-5	i	-3	-14	2	-1	4
COc1cc(OC)c(C(=O)Nc2ccccc2-c2ccccc2)cc1OC	-7	18	i	46	6	-11	-1	-5
C/C(=N\N1CCN(Cc2ccc(Cl)cc2)CC1)c1ccc([N+](=O)[O-])cc1	11	23	i	8	3	-7	1	-11

Remaining list, next part:
Molecule	eIF4H FP inh	HIV Env fusion	Rce1 inhib	CSC inhib	UUG fidelity	PABP FP inh	MT1-MMP act inh	MT1-MMP act inh RFP
C=CCc1cccc(CNc2c(C)cc(C)cc2C)c1O	-7	-9	i	20	/	-3	-5	-2
CCOc1cc2[nH]c(=O)n(CCC(=O)N3CCN(c4ccccc4OC)CC3)c(=O)c2cc1OCC	-3	-16	/	-5	20	-6	1	1
CCN(CCCNC(=O)CN(C)S(=O)(=O)c1ccc2c(c1)CCC(=O)N2)c1cccc(C)c1	5	-76	i	-10	-4	-4	2	4
O=C1c2ccccc2C(=O)c2[nH]cnc21	0	-37	i	10	1	11	6	3
CCN(CC)S(=O)(=O)c1cccc(C(=O)N[C@H](C(=O)NCc2ccc(Cl)cc2)C(C)C)c1	6	/	i	5	-22	-1	-10	-13
COC(=O)c1ccc(-n2c(C)cc(C(=O)COC(=O)CC3Sc4ccccc4NC3=O)c2C)cc1 (stereo not given)	-9	/	i	-11	-9	-4	2	-2
O=S1(=O)CC(N2CCN(CC3CC3)CC2)CN1CCc1ccccc1 (stereo not given)	/	18	/	/	-12	/	5	6
CCOc1ccccc1N(C(=O)c1ccco1)C(C(=O)NC1CCCC1)c1cccnc1 (stereo not given)	4	/	i	-3	7	4	1	6
CCC(=O)OC1(C(C)=O)CCC2C3CCC4=CC(=O)CCC4(C)C3CCC21C (stereo not given)	/	-118	/	/	6	/	6	-2
COc1cccc(C#CC2=CC(=O)C[C@H](c3ccc(F)cc3)C2)c1	/	-6	/	/	-5	/	-1	0
O=C(CNS(=O)(=O)c1ccccc1)Nc1ccc2c(c1)OCO2	-9	8	i	6	/	7	-1	2
CC1(C)Oc2ccc(C(=O)NC3CCCC3)cc2N(CC(=O)NC2CCCC2)C1=O	-7	44	i	1	-4	-4	2	4
c1ccc(CCn2nnnc2CN2CCc3ccccc32)cc1	-6	/	/	8	1	-6	-5	-7
CC1CCN(CCCNC(=O)c2cc3c(s2)-c2ccccc2OC3)CC1	-45	7	?	11	1	-7	-1	-2
CCN(CC)CC(=O)c1ccc(-c2ccccc2)cc1	3	11	i	1	-11	13	-2	5

Carrying on:
Molecule	eIF4H FP inh	HIV Env fusion	Rce1 inhib	CSC inhib	UUG fidelity	PABP FP inh	MT1-MMP act inh	MT1-MMP act inh RFP
Cc1cc(NC(=O)CCC(=O)N(CC(=O)NC2CCCC2)c2ccc(F)c(Cl)c2)no1	-13	3	i	-11	-11	10	-2	-1
Cc1ccc(C)[n+](CC(=O)N2CCCCC2)c1	-7	-28	/	/	/	2	-2	7
COc1ccc(OC)c(S(=O)(=O)n2nnc3ccccc32)c1	2	/	i	-10	6	-11	6	6
CCCCSC(=S)NC1CCS(=O)(=O)C1 (stereo not given)	-1	/	i	17	-9	7	0	-2
Cc1ccn2cc(-c3ccc(O)c(O)c3)nc2c1	12	6	i	33	-86	4	4	-5
COc1ccc(/C=C/C(=O)CCC(=O)O)cc1	6	-18	i	-11	/	-4	0	5
CC(OC(=O)CCN=C1NS(=O)(=O)c2ccccc21)C(=O)Nc1ccc(F)c(F)c1F (stereo not given)	/	0	i	-3	0	/	4	3
CC(C)(CO)NCc1ccc(Br)cc1	1	-2	i	9	/	-6	0	2
Cc1ccc(Cn2c(=N)c(C(=O)NCCN3CCOCC3)cc3c(=O)n4ccccc4nc32)cc1	6	1	i	-12	-11	16	4	3
COCCCNC(=O)c1ccc2c(=O)n(Cc3ccc(Cl)cc3)c(=S)[nH]c2c1	-9	4	i	-8	-9	7	6	-4
CCCCN1C(=O)c2ccc(C(=O)OCC(=O)NCCc3ccc(S(N)(=O)=O)cc3)cc2C1=O	/	12	/	-7	-7	/	1	1
CC(=O)c1ccc(NC(=O)C2CC(=O)Nc3nc4ccccc4n32)cc1 (stereo not given)	-1	6	i	-6	-20	12	3	1
C[C@@H]1NC(=O)N[C@@H]1CCCCCC(=O)O	/	27	i	1	-16	/	2	4
CCOc1ccc(C(CC(=O)O)NC(=O)c2ccco2)cc1 (stereo not given)	3	-22	i	-4	-9	-8	0	2
OC(c1ccc(F)c(F)c1)c1nc(-c2cncnc2)cs1 (stereo not given)	/	15	/	/	-34	/	-2	-1

More structures.
Molecule	eIF4H FP inh	HIV Env fusion	Rce1 inhib	CSC inhib	UUG fidelity	PABP FP inh	MT1-MMP act inh	MT1-MMP act inh RFP
C/C(=N\NC(=O)C1(C)NC(C)(C)Cc2ccccc21)c1ccccc1 (stereo not given)	-8	-14	i	-13	/	-10	-3	-4
Cn1c(=O)c2c(nc(Sc3ncnn3CC(=O)NC3CCCCC3)n2C)n(C)c1=O	-3	0	i	-8	/	4	1	3
O=C(Cc1ncc(C(F)(F)F)cc1Cl)NCCc1ccccn1	-4	2	i	-1	/	-9	-2	-1
COc1ccc(C(=O)NCCCCNC(=O)c2ccc(OC)c(OC)c2)cc1OC	-2	-50	i	0	5	0	-2	3
Cn1cnc([N+](=O)[O-])c1S(=O)(=O)Oc1cccc2ccccc12	/	-1	/	/	-6	/	4	8
